Bioassay records from PubChem BioAssay.
HIV Env fusion: inhibitors of HIV Env-mediated cell fusion; 1.1% of 360,000 active; HeLa-JRFL Env/CEM21 cell fusion, luciferase; inhibition, % at 12.3 µM;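 active = mean replicate inhibition score of at least 50 and every replicate individually at or above 50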;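 note: 0% = plate neutral controls and 100% = maraviroc near 300 nM; one replicate is shown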
UUG fidelity: alters start codon recognition fidelity in yeast; S. cerevisiae UUG-firefly luciferase reporter, luminescence/redox ratio; activity score, % at 18.7 µM; 0.13% of 350,000 active; AID 602363;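 active = replicate mean at a twofold rise or more, about +100% in these data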;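 note: firefly luciferase made from a UUG start codon reports start codon fidelity; reporter light over untreated wells divided by growth signal over untreated wells; some hits fall short of that in this replicate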
Active calls of the source: *; [ ] = another dose, or the depositor's remark.

SMILES | HIV Env fusion | UUG fidelity
C[C@@H]1CCCCO[C@H](CN(C)Cc2ccc(C(F)(F)F)cc2)[C@H](C)CN([C@H](C)CO)C(=O)c2cc(NC(=O)c3ccncc3)ccc2O1 | 6[16.7 µM] | -2
COc1ccc(S(=O)(=O)Nc2ccc3c(c2)C(=O)N([C@@H](C)CO)C[C@H](C)[C@H](CN(C)C(=O)Nc2ccc(C(F)(F)F)cc2)OCCCC[C@H](C)O3)cc1 | 11[16.7 µM] | -14
O=C(Cc1cccnc1)N[C@@H]1CC[C@H](CCn2cc(Cc3ccccc3)nn2)O[C@H]1CO | 0[16.7 µM] | -23
O=C(C[C@H]1CC[C@@H](NC(=O)CC2CC2)[C@@H](CO)O1)NCc1ccc(-c2ccccc2)cc1 | -6[16.7 µM] | -15
COCC1=C2[C@@H](c3ccccc3)OB(O)C[C@@H]2n2c(=O)n(-c3ccccc3)c(=O)n2C1 | 7[16.7 µM] | -8
CC(=O)N(C)C[C@H]1Oc2cc(-c3ccccc3)ccc2S(=O)(=O)N([C@H](C)CO)C[C@H]1C | 17[16.7 µM] | 15
C/C=C/c1ccc2c(c1)O[C@H](CN(C)C(=O)Nc1ccccc1)[C@H](C)CN([C@H](C)CO)S2(=O)=O | -5[16.7 µM] | -3
C[C@H]1CCCCO[C@@H](CN(C)C(=O)C2CCCCC2)[C@@H](C)CN([C@@H](C)CO)C(=O)c2cc(NC(=O)CCC(F)(F)F)ccc2O1 | 20[16.7 µM] | 25
C[C@H](CO)N1C[C@H](C)[C@H](CN(C)Cc2ccc(C(=O)Nc3ccccc3N)cc2)Oc2ccc(NC(=O)Nc3cccc4ccccc34)cc2CC1=O | -24[16.7 µM] | -8
COc1cccc(-c2cnc3c(c2)C(=O)N([C@H](C)CO)C[C@@H](C)[C@H](CN(C)Cc2ccncc2)O3)c1 | 10[16.7 µM] | -8
C[C@@H]1CN([C@@H](C)CO)C(=O)c2cccc(NC(=O)NC3CCCCC3)c2O[C@@H]1CN(C)Cc1ccc(Oc2ccccc2)cc1 | -111[16.7 µM] | -3
Cc1ccccc1S(=O)(=O)NCC[C@@H]1CC[C@H](NC(=O)C2CCOCC2)[C@@H](CO)O1 | 7[16.7 µM] | 29
C[C@@H]1CCCCO[C@@H](CN(C)C(=O)CCC(F)(F)F)[C@H](C)CN([C@H](C)CO)C(=O)c2cc(NS(=O)(=O)c3ccc(F)cc3)ccc2O1 | -77[16.7 µM] | 4
O=C(C[C@H]1CC[C@@H](NC(=O)c2cccc(F)c2)[C@H](CO)O1)Nc1nccs1 | 5[16.7 µM] | 0
C/C=C/c1ccc2c(c1)O[C@H](CN(C)Cc1ccc(C(=O)O)cc1)[C@@H](C)CN([C@@H](C)CO)S2(=O)=O | 14[16.7 µM] | -1
CCNC(=O)C[C@H]1CC[C@H]2[C@H](COc3ccc(NC(=O)c4ccccc4)cc3C(=O)N2C)O1 | 3[16.7 µM] | -6
CC(C)NC(=O)N(C)C[C@@H]1Oc2ncc(C#Cc3ccncc3)cc2C(=O)N([C@@H](C)CO)C[C@H]1C | -14[16.7 µM] | 14
Cc1ccc(S(=O)(=O)N(C)C[C@H]2OCCCC[C@@H](C)Oc3ccc(NC(=O)c4ccccc4)cc3C(=O)N([C@@H](C)CO)C[C@@H]2C)cc1 | -73[16.7 µM] | -9
COCC#Cc1ccc2c(c1)O[C@H](CN(C)C)[C@H](C)CN([C@H](C)CO)S2(=O)=O | 15[16.7 µM] | 2
C[C@H]1CN([C@@H](C)CO)C(=O)Cc2cc(NC(=O)C3CCCCC3)ccc2O[C@@H]1CN(C)Cc1ccc(-c2ccccc2)cc1 | 9[16.7 µM] | 3
COc1cccc(S(=O)(=O)N2C[C@@H](O)COC[C@@H]3O[C@H](CC(=O)NCCCN4CCOCC4)CC[C@H]32)c1 | -15[16.7 µM] | -3
C[C@@H]1CCCCO[C@@H](CN(C)C(=O)Cc2ccccc2)[C@H](C)CN([C@@H](C)CO)C(=O)c2cc(NC(=O)Nc3ccc(F)cc3)ccc2O1 | -18[16.7 µM] | 5
O=C(Nc1ccccc1F)N[C@@H]1CC[C@@H](CCNC(=O)C2CCC2)O[C@H]1CO | -2[16.7 µM] | -1
CO[C@@H]1CN(C)C(=O)c2cc(NC(=O)c3ccc4c(c3)OCO4)ccc2OC[C@H](C)NC[C@H]1C | -10[16.7 µM] | -5
CN1C(=O)c2cc(NC(=O)c3cscn3)ccc2OC[C@H]2O[C@@H](CC(=O)N3CCCCC3)CC[C@H]21 | 18[16.7 µM] | 7
CCCNC(=O)N1C[C@@H](C)[C@@H](OC)CN(C)C(=O)c2cc(NS(=O)(=O)CC)ccc2OC[C@@H]1C | -20[16.7 µM] | 0
O=C(N[C@H]1CC[C@@H](CC(=O)N2CCN(c3ccccc3)CC2)O[C@H]1CO)c1ccccc1 | 25[16.7 µM] | 12
O=C(C[C@@H]1C[C@@H]2c3cc(NC(=O)c4ccc5c(c4)OCO5)ccc3O[C@@H]2[C@@H](CO)O1)NCC1CC1 | 4[16.7 µM] | 11
C[C@H](CO)N1C[C@H](C)[C@@H](CN(C)Cc2ccccn2)Oc2cc(-c3ccccc3)ccc2S1(=O)=O | 24[16.7 µM] | 6
CO[C@@H]1CN(C)C(=O)c2cc(NS(C)(=O)=O)ccc2OC[C@@H](C)N(C(=O)CN(C)C)C[C@@H]1C | 4[16.7 µM] | -8
C[C@@H]1CCCCO[C@@H](CN(C)S(=O)(=O)c2cccs2)[C@@H](C)CN([C@H](C)CO)C(=O)c2cc(NC(=O)Nc3ccccc3)ccc2O1 | 17[16.7 µM] | -2
COc1ccccc1-c1cnc2c(c1)C(=O)N([C@@H](C)CO)C[C@H](C)[C@H](CN(C)C(=O)CN(C)C)O2 | 23[16.7 µM] | -1
C[C@H]1CN([C@@H](C)CO)C(=O)c2cc(NC(=O)CCCN(C)C)ccc2O[C@H]1CN(C)Cc1ccccc1 | 1[16.7 µM] | -19
CCC(=O)N1C[C@H](C)[C@H](OC)CN(C)C(=O)c2ccc(NC(=O)C3CCCCC3)cc2OC[C@H]1C | 9[16.7 µM] | 2
COc1ccc(NC(=O)Nc2ccc3c(c2)C(=O)N([C@H](C)CO)C[C@H](C)[C@@H](CN(C)CC2CCCCC2)OCCCC[C@H](C)O3)cc1 | -21[16.7 µM] | 17
C[C@@H]1CN([C@H](C)CO)C(=O)c2cc(NC(=O)C3CC3)ccc2O[C@@H]1CN(C)S(=O)(=O)c1cccs1 | -36[16.7 µM] | 15
CC(=O)N(C)C[C@@H]1Oc2ncc(C#Cc3ccncc3)cc2C(=O)N([C@H](C)CO)C[C@@H]1C | -7[16.7 µM] | 4
COc1ccc(NC(=O)Nc2ccc3c(c2)CC(=O)N([C@H](C)CO)C[C@H](C)[C@@H](CN(C)Cc2ccc(-c4ccccc4)cc2)O3)cc1 | 20[16.7 µM] | 2
O=C(NCC[C@@H]1CC[C@@H](NS(=O)(=O)c2ccc(F)cc2)[C@H](CO)O1)c1ccc2c(c1)OCO2 | 6[16.7 µM] | -4
C[C@H]1CN([C@@H](C)CO)C(=O)c2cccc(NC(=O)C3CC3)c2O[C@@H]1CN(C)Cc1ccc(C(F)(F)F)cc1 | -5[16.7 µM] | -5
COc1ccc(CN(C)C[C@@H]2OCCCC[C@H](C)Oc3ccc(NC(=O)CCC(F)(F)F)cc3C(=O)N([C@@H](C)CO)C[C@@H]2C)cc1 | -11[16.7 µM] | 0
O=S(=O)(N[C@H]1CC[C@@H](CCn2cc(C3CC3)nn2)O[C@H]1CO)c1ccc(F)cc1 | -6[16.7 µM] | 4
COc1ccc(S(=O)(=O)Nc2cccc3c2O[C@H](CN(C)S(=O)(=O)c2ccc(F)cc2)[C@@H](C)CN([C@H](C)CO)C3=O)cc1 | -16[16.7 µM] | -23
C[C@@H]1CN([C@@H](C)CO)C(=O)c2cc(NS(C)(=O)=O)ccc2O[C@H]1CN(C)Cc1ccc(Cl)c(Cl)c1 | -18[16.7 µM] | -7
CC(C)CC#Cc1cnc2c(c1)C(=O)N([C@H](C)CO)C[C@@H](C)[C@H](CN(C)C(=O)Cc1ccccc1)O2 | 22[16.7 µM] | 0
C[C@H](CO)N1C[C@H](C)[C@@H](CN(C)C(=O)c2cccnc2)Oc2cc(C3=CCCC3)ccc2S1(=O)=O | 3[16.7 µM] | -10
CCCN(C)C[C@@H]1Oc2ncc(C#CC3CC3)cc2C(=O)N([C@H](C)CO)C[C@H]1C | 29[16.7 µM] | -1
COc1ccc(S(=O)(=O)Nc2ccc3c(c2)C(=O)N([C@@H](C)CO)C[C@@H](C)[C@H](CN(C)Cc2ccc(C(=O)Nc4ccccc4N)cc2)O3)cc1 | 19[16.7 µM] | -1
CN1C(=O)c2cc(NC(=O)C3CCCC3)ccc2OC[C@@H]2O[C@@H](CC(=O)Nc3ccccc3)CC[C@H]21 | -10[16.7 µM] | 24
CC(C)NC(=O)NCC[C@H]1CC[C@@H](NC(=O)Nc2ccccc2)[C@@H](CO)O1 | 23[16.7 µM] | -2
C[C@H](CO)N1C[C@H](C)[C@H](CN(C)C(=O)Nc2ccc(C(F)(F)F)cc2)OCCCC[C@H](C)Oc2ccc(NS(=O)(=O)c3cn(C)cn3)cc2C1=O | 6[16.7 µM] | -10
COC(=O)C[C@H]1CC[C@@H]2[C@@H](COc3ccc(NS(C)(=O)=O)cc3C(=O)N2C)O1 | -16[16.7 µM] | -18
CC(C)(C)OC(=O)CC[C@]12N=C(c3ccc(OCCCO)cc3)O[C@H]1c1ccccc1CN(C(=O)c1ccccc1)C2=O | 19[16.7 µM] | -18
C[C@H]1CN([C@@H](C)CO)C(=O)c2cc(C3=CCCCC3)cnc2O[C@@H]1CN(C)C(=O)c1ccccc1 | 1[16.7 µM] | 4
Cc1ccc(S(=O)(=O)N(C)C[C@@H]2OCCCC[C@@H](C)Oc3ccc(NC(=O)c4ccncc4)cc3C(=O)N([C@@H](C)CO)C[C@H]2C)cc1 | 4[16.7 µM] | -8
COc1ccc(NC(=O)Nc2ccc3c(c2)C(=O)N([C@@H](C)CO)C[C@@H](C)[C@@H](CN(C)S(=O)(=O)c2ccc(C)cc2)OCCCC[C@@H](C)O3)cc1 | -6[16.7 µM] | -14
COCC(=O)Nc1ccc2c(c1)C(=O)N(C)[C@@H]1CC[C@H](CC(=O)NCc3cccc(F)c3)O[C@@H]1CO2 | -12[16.7 µM] | -6
COc1ccccc1C#Cc1ccc2c(c1)O[C@H](CN(C)Cc1cncnc1)[C@H](C)CN([C@@H](C)CO)S2(=O)=O | -14[16.7 µM] | 7
COc1ccccc1NC(=O)N[C@H]1CC[C@@H](CCNS(=O)(=O)c2ccc(Cl)cc2)O[C@@H]1CO | 10[16.7 µM] | 3
COc1cccc(CNC(=O)C[C@H]2CC[C@@H]3[C@@H](COc4ccc(NC(C)=O)cc4C(=O)N3C)O2)c1 | 8[16.7 µM] | -3
Further structures follow.
SMILES | HIV Env fusion | UUG fidelity
CNC[C@H]1OCCCC[C@H](C)Oc2ccc(NC(=O)Nc3c(C)noc3C)cc2C(=O)N([C@H](C)CO)C[C@@H]1C | -4[16.7 µM] | 14
C[C@H](CO)N1C[C@H](C)[C@@H](CN(C)S(=O)(=O)c2ccc(F)cc2)OCCCC[C@H](C)Oc2ccc(NC(=O)CCCN(C)C)cc2C1=O | 8[16.7 µM] | 28
O=C(N[C@@H]1CC[C@@H](CCn2cc(C3CCCCC3)nn2)O[C@@H]1CO)c1cccnc1 | -4[16.7 µM] | 14
C[C@@H]1CN([C@@H](C)CO)C(=O)c2cccc(NC(=O)C3CCCCC3)c2O[C@@H]1CN(C)CC1CC1 | 0[16.7 µM] | -3
O=C(NCC[C@H]1CC[C@H](NC(=O)c2cnccn2)[C@H](CO)O1)Nc1ccc(F)cc1 | 9[16.7 µM] | -2
COCC(=O)Nc1ccc2c(c1)[C@@H]1C[C@H](CC(=O)NCc3cccc(F)c3)O[C@H](CO)[C@@H]1O2 | -1[16.7 µM] | -1

Rewritten in markdown: part of the list above
| compound | HIV Env fusion | UUG fidelity |
| --- | --- | --- |
| Cc1ccc(S(=O)(=O)N(C)C[C@@H]2OCCCC[C@@H](C)Oc3ccc(NC(=O)c4ccncc4)cc3C(=O)N([C@@H](C)CO)C[C@H]2C)cc1 | 4[16.7 µM] | -8 |
| COc1ccc(NC(=O)Nc2ccc3c(c2)C(=O)N([C@@H](C)CO)C[C@@H](C)[C@@H](CN(C)S(=O)(=O)c2ccc(C)cc2)OCCCC[C@@H](C)O3)cc1 | -6[16.7 µM] | -14 |
| COCC(=O)Nc1ccc2c(c1)C(=O)N(C)[C@@H]1CC[C@H](CC(=O)NCc3cccc(F)c3)O[C@@H]1CO2 | -12[16.7 µM] | -6 |
| COc1ccccc1C#Cc1ccc2c(c1)O[C@H](CN(C)Cc1cncnc1)[C@H](C)CN([C@@H](C)CO)S2(=O)=O | -14[16.7 µM] | 7 |
| COc1ccccc1NC(=O)N[C@H]1CC[C@@H](CCNS(=O)(=O)c2ccc(Cl)cc2)O[C@@H]1CO | 10[16.7 µM] | 3 |
| COc1cccc(CNC(=O)C[C@H]2CC[C@@H]3[C@@H](COc4ccc(NC(C)=O)cc4C(=O)N3C)O2)c1 | 8[16.7 µM] | -3 |
| CNC[C@H]1OCCCC[C@H](C)Oc2ccc(NC(=O)Nc3c(C)noc3C)cc2C(=O)N([C@H](C)CO)C[C@@H]1C | -4[16.7 µM] | 14 |
| C[C@H](CO)N1C[C@H](C)[C@@H](CN(C)S(=O)(=O)c2ccc(F)cc2)OCCCC[C@H](C)Oc2ccc(NC(=O)CCCN(C)C)cc2C1=O | 8[16.7 µM] | 28 |
| O=C(N[C@@H]1CC[C@@H](CCn2cc(C3CCCCC3)nn2)O[C@@H]1CO)c1cccnc1 | -4[16.7 µM] | 14 |

A portion of the library; the hit share may differ from the screen's.
